# Bioassay records as filed in PubChem BioAssay.
# CSC inhib = cancer stem cell inhibition. cancer stem cell-like cells viability, luminescence. inhibition, % at 7.5 µM. 300,000 compounds, 1.1% hits. AID 2717;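 active = mean at 75% or more and at least half the replicates too; inconclusive = mean and replicates disagree; tested in HMLE shEcad cells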;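 note: 0% = median of negative and 100% = median of positive control wells; the first replicate is given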
# eIF4H FP inh = inhibitors of RNA binding by human eIF4H | Q15056 | eIF4H fluorescence polarization binding assay | inhibition, % at 35 µM | 290,000 compounds, 0.94% hits;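 active = 50% or more with normal probe brightness, or confirmed in later tests; inconclusive = above 50% with abnormal brightness, or retests that disagree; inactive = below 50% or failed in later tests; about a fifth of its hits are not listed in these tables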;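 note: calls also rest on retests at 20 µM and on dose response follow-up; 0% = protein and probe with vehicle and 100% = probe without protein; strong numbers were not always called active; many hits fall short of the cut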
# Rce1 inhib = inhibitors of yeast Ras-converting enzyme; Q03530; yeast membranes, quenched prenylated peptide cleavage fluorescence; calls only; 290,000 compounds, 0.27% hits; AID 2563;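 active = fall in fluorescence gain of 50% or more versus controls, with final raw signal at or below 3038400; inconclusive = same 50% fall but final raw signal above 3038400; inactive = fall in fluorescence gain under 50%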;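 note: plate controls were neutral control wells for no effect and wells lacking membranes for full effect; tested at 10 µM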
# Env fusion inh = blocks HIV Env-driven cell-cell fusion; HeLa-JRFL Env/CEM21 cell fusion, luciferase; inhibition, % at 12.3 µM; 360,000 compounds, 1.1% hits;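 active = mean replicate inhibition score of at least 50 and every replicate individually at or above 50; inconclusive = only one of the two criteria met; inactive = mean below 50 and not all replicates reaching 50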;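 note: 0% = plate neutral controls and 100% = maraviroc near 300 nM; one replicate is shown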
# UUG fidelity = modulators of start codon recognition fidelity in yeast. activity score, % at 18.7 µM. 350,000 compounds, 0.13% hits. S. cerevisiae UUG-firefly luciferase reporter, luminescence/redox ratio;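 active = replicate mean at a twofold rise or more, about +100% in these data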;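 note: firefly luciferase made from a UUG start codon reports start codon fidelity; reporter light over untreated wells divided by growth signal over untreated wells; some hits fall short of that in this replicate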
# MT1-MMP act inh = inhibitors of human MT1-MMP activation | P50281 | HT1080 RFP-PRO-GFP cells, GFP/RFP ratio fluorescence, overnight; percent of plate control window, DMSO zero | GFP/RFP ratio change, % at 20 µM | 360,000 compounds, 0.061% hits | AID 651647;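 active = GFP/RFP ratio change of at least 30% with cell ATP level not reduced by more than half and red fluorescence within 50% of control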; note: strong numbers were not always called active
#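 Assay system – RFP-PRO-GFP reporter HT1080 cells · Compound dosing – single dose of 20 µM compound, 1% DMSO final · Incubation – overnight compound exposure at 37 °C · Measure – GFP/RFP fluorescence ratio · Benchmarks – DMSO wells and RFP-L50D-GFP cells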
# PABP FP inh = PABP-poly(A) binding inhibition | P11940 | PABP-poly(A) RNA binding, fluorescence polarization | inhibition, % at 35 µM | 290,000 compounds, 1% hits | AID 2014;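 active = 50% or more with normal probe brightness, or confirmed in later tests; inconclusive = above 50% with abnormal brightness, or retests that disagree; inactive = below 50% or failed in later tests; about a fifth of its hits are not listed in these tables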;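 note: calls also rest on retests at 20 µM and on dose response follow-up; controls were probe without protein and protein plus probe with vehicle; some compounds called inactive have numbers as strong as hits; many hits fall short of the cut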
# Target sequence (P11940 whole entry, looked up): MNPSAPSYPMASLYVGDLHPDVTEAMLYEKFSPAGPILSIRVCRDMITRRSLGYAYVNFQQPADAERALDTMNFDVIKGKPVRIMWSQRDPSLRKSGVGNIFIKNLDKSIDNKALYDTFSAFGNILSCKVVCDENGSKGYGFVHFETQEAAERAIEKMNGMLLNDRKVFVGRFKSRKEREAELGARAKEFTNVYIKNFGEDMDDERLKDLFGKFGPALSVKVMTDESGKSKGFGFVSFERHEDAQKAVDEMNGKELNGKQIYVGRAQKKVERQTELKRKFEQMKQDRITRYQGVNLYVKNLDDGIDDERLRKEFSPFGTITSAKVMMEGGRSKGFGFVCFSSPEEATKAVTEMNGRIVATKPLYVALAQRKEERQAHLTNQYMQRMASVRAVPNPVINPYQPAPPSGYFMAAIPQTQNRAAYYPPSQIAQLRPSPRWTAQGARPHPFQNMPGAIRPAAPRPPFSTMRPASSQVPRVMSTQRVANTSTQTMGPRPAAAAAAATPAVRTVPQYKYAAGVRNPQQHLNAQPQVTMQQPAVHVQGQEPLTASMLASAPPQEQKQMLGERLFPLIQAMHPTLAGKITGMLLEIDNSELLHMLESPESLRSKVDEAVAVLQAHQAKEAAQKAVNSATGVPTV
# eIF4H FP inh retest = second read-out of eIF4H FP inh, no call of its own (marks repeat the call); inhibition, %; compound at 20 µM; confirmation average;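 mean of two retest wells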
# PABP FP inh retest = further read-out of PABP FP inh, marked with its call; inhibition, %; compound at 20 µM; confirmation repeats;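 mean of two retest wells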
# MT1-MMP act inh RFP = also measured in MT1-MMP act inh; calls as there; RFP signal change, %; measured here: RFP expression control read;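 0 = vehicle wells; hits needed this value within 50% of zero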
# Active calls of the source: *; i = inactive; ? = inconclusive; nt = not tested or not shown. An unsorted share of the library, and some 3% of all compounds hit somewhere here.
SMILES,CSC inhib,eIF4H FP inh,Rce1 inhib,Env fusion inh,UUG fidelity,MT1-MMP act inh,MT1-MMP act inh RFP,PABP FP inh,others
CC1=NN(c2ccccc2)C(=O)/C1=C/c1ccc[nH]1,-10.0,3.0,i,-6.3,-5.5,-2.9,-2.1,-2.0,
Cc1ccc(Cc2c(C3CCCCC3)nc3c4ccccc4ccn23)cc1,nt,nt,nt,-50.5,-16.1,-16.1,-2.5,nt,
CCc1nnc(NS(=O)(=O)c2ccc(NC(=O)c3ccccc3C)cc2)s1,0.3,-0.8,i,-7.3,-10.9,0.5,2.9,-5.5,
COc1ccc(Cl)cc1NC(=O)N1CCN(CCc2ccccc2)CC1,9.7,12.6,i,nt,-0.6,4.3,-1.8,-4.0,
O=C(O)CCc1ccc(-c2ccc(F)cc2)n1CCC(=O)O,nt,5.1,i,nt,nt,23.4,3.5,2.0,
O=C(Nc1cc(C(=O)N2CCCC2)ccc1N1CCCC1)c1ccccc1F,-1.6,-0.9,i,4.0,nt,5.7,1.1,7.8,
Oc1ccc(N=Cc2ccc(-c3cccs3)s2)cc1,27.6,50.8*,i,34.1,-31.2,18.4,15.0,13.9,eIF4H FP inh retest=98.0*;PABP FP inh retest=37.2
O=C(CCC(=O)Nc1cccc2ccccc12)N/N=C/c1ccco1,-3.5,1.2,i,7.0,-11.3,5.3,7.8,7.0,
CCNC(=O)O/N=C(\C)c1sc(-c2ccccc2)nc1C,-1.6,0.2,i,nt,12.5,4.3,2.2,-1.2,
Fc1ccc(C(c2nnnn2C2CCCC2)N2CCN(Cc3ccccc3)CC2)cc1 (stereo unspecified),nt,0.7,i,nt,1.2,2.3,-0.7,1.4,
CC(=O)c1ccccc1OC(=O)c1ccc([N+](=O)[O-])o1,-7.9,-7.2,i,-3.5,-1.1,-2.7,-3.9,3.8,
COc1ccc(N2CCN(c3cncc(C)n3)CC2)cc1,nt,nt,nt,32.7,5.8,-2.8,-2.9,nt,
Nc1nc(SCCN2C(=O)c3ccccc3C2=O)n[nH]1,-8.3,-3.8,i,15.4,-17.5,-6.4,6.1,3.1,
COc1ccc(CNc2nc(C)cc(C)c2C#N)cc1,-1.5,-4.2,i,-7.5,0.1,4.4,2.4,-4.0,
Cc1ccc(NS(=O)(=O)c2ccc3[nH]c(=O)[nH]c3c2)cc1,2.5,nt,i,-10.6,-9.5,-0.4,0.9,nt,
Cc1cc(=O)n(C)c2ccccc12,4.6,-7.1,i,12.6,nt,2.1,5.6,1.9,
COc1ccc(OCC(O)CN(C)C(=O)/C=C/c2cccc([N+](=O)[O-])c2)cc1 (stereo unspecified),nt,-11.3,i,12.5,nt,-2.2,2.9,4.1,
COC(=O)c1ccccc1NC(=O)C1CCCC1,nt,3.4,i,-157.1,-4.3,-0.3,3.2,-9.9,
COc1ccc(S(=O)(=O)Nc2cccnc2)c(C)c1C,-6.1,0.0,nt,6.5,12.1,0.5,7.6,-5.0,
COC(=O)C1=C(C)N(CCCC(=O)O)C(=O)NC1c1ccc(C(F)(F)F)cc1 (stereo unspecified),-9.2,-10.3,i,-22.0,-6.0,6.8,1.5,18.2,
O=C1CC(c2ccccc2)CC(=O)N1c1ccccc1,-3.5,-15.9,i,15.1,-3.1,1.4,0.7,0.8,
COC(=O)c1sc2ncccc2c1OCc1ccc(Cl)cc1Cl,-15.2,1.1,i,-32.5,-18.6,0.6,-1.2,3.8,
O=C1c2ccccc2-c2cccc(C(=O)N3CCN(C(=O)c4ccccc4)CC3)c21,-12.8,-0.9,i,8.5,nt,-1.5,-0.9,1.6,
O=C(COC(=O)C1CCN(S(=O)(=O)c2ccc(Cl)c(C(F)(F)F)c2)CC1)NCC1CCCO1 (stereo unspecified),nt,nt,nt,17.5,-10.2,-3.7,3.1,nt,
CC1=NN(C(=O)Cc2ccc([N+](=O)[O-])cc2)C(O)(c2ccccc2)C1 (stereo unspecified),2.1,-15.2,i,23.1,nt,5.1,7.3,-4.7,
CCOc1ccc(-n2c(=O)c3c4c(sc3n(CC(=O)NCC3CCCO3)c2=O)CCCC4)cc1 (stereo unspecified),-15.6,-1.6,i,12.0,nt,-3.2,0.6,6.5,
O=C(CCCCCC(=O)N(CCO)CCO)N(CCO)CCO,0.0,-8.5,i,nt,-6.8,2.3,1.7,15.2,
COc1cc(C(C)=O)ccc1OCC(O)CN1CCN(c2ccccn2)CC1 (stereo unspecified),5.5,9.9,nt,10.0,-2.0,8.5,-0.4,8.0,
O=c1c[n+]([O-])c2ccccc2n1OCc1ccccn1,-0.6,-3.0,i,25.9,-10.8,-37.7,-1.6,-5.6,
CC(C)CN(C(=O)COC(=O)c1c(Cl)ccc(Cl)c1Cl)C1CCS(=O)(=O)C1 (stereo unspecified),-4.7,-5.3,nt,18.8,8.5,-2.3,0.1,-3.2,
Cc1ccc(NC(=O)Cc2nc(-c3c[nH]c(C(=O)N4CCCC4)c3)cs2)c(C)c1,nt,nt,nt,-2.2,-7.9,-0.7,-5.3,nt,
OCC1(CCc2ccccc2)CCN(Cc2ccccc2Cl)CC1,15.2,-0.6,i,0.6,nt,-2.6,-2.0,3.3,
CCCCC1(c2ccc(F)cc2)NC(=O)N(CC(=O)N2CCN(C(=O)c3ccco3)CC2)C1=O (stereo unspecified),1.6,-1.9,i,3.4,9.1,-1.9,2.9,0.5,
O=[N+]([O-])c1ccc2n[nH]nc2c1,-10.2,-0.2,i,-105.4,7.6,1.6,2.9,0.2,
Cc1ccc(C(=O)Nc2nc(-c3ccccn3)cs2)cc1S(=O)(=O)N1CCOCC1,nt,nt,nt,54.0,-19.9,1.7,-11.9,nt,
O=S1(=O)N=C(c2ccccc2)c2ccccc21,-5.7,nt,i,-5.7,-3.1,2.3,1.6,nt,
O=C(CCC(=O)c1cccs1)NCc1ccccc1Cl,10.0,nt,nt,-5.9,nt,23.4,-1.8,nt,
COc1ccc(NC(=O)c2ccc3c(c2)C(=O)N(Cc2cccnc2)C3=O)cc1,-4.2,-9.3,i,nt,-9.7,1.1,-0.8,2.5,
COc1ccccc1CNC(=O)COC(=O)CSc1ccc(F)cc1,-9.9,nt,i,6.0,-6.9,8.7,6.3,nt,
Cc1ccc(NC(=O)C2=CCN(S(=O)(=O)c3ccc(F)cc3)CC2)cc1,-8.3,-0.9,i,-8.6,-12.2,-1.9,-0.8,6.5,
CC(C)=CCC/C(C)=C/CCC(C)NCCN1CCNCC1 (stereo unspecified),53.0,-3.4,i,nt,nt,nt,nt,4.1,
CSc1ccc(CN(C)CC(=O)Nc2ccc(NC(C)=O)cc2)cc1,-8.1,-0.3,i,19.4,-6.2,-9.3,-4.2,-12.5,
O=C(CN1CCN(C(=O)c2ccco2)CC1)N1CCc2[nH]c3ccccc3c2C1,-3.4,?,i,nt,nt,nt,nt,?,
O=[N+]([O-])c1cccc(/C=C/c2nc[nH]c2[N+](=O)[O-])c1,17.8,-6.8,i,-24.9,-15.9,-1.6,-0.7,4.8,
CSCCC(NC(=O)c1ccccc1Cl)C(=O)N1CCN(C(C)=O)CC1 (stereo unspecified),nt,nt,nt,-1.2,-19.2,1.6,4.2,nt,
COc1cc(C2C(C(=O)OC(C)C)=C(C)Nc3ncnn32)cc(OC)c1OC (stereo unspecified),6.0,-12.2,i,-9.8,-20.1,-1.8,1.9,3.7,
C=CCNC(=O)c1ccc2c(=O)n(CCCN3CCCC3=O)c(=S)[nH]c2c1,7.5,-4.0,i,-9.4,nt,-0.8,1.5,3.7,
CC(C)=C1C2CCC1C(C(=O)Nc1cc(C)cc(C)c1)C2C(=O)O (stereo unspecified),-20.1,-5.7,i,10.7,nt,0.0,0.2,8.8,
COc1ccc(-c2nnc(SCC(=O)Nc3ccc(C(=O)O)cc3)n2-c2ccc(Cl)cc2)cc1,-13.1,-3.3,i,19.3,-18.0,-6.9,-5.1,7.4,
COC(=O)c1c(NC(=O)c2cccnc2Cl)sc(C(=O)N(C)C)c1C,-16.7,-8.3,i,6.2,-10.6,4.2,4.3,-10.5,
O=C(/C=C/NNC(=O)c1ccccc1O)c1ccccc1,18.1,-11.4,i,14.4,-23.4,-5.3,-5.7,-0.4,
CCCC(=O)Nc1cc(S(=O)(=O)N(CC)CC)ccc1Cl,-5.1,-7.5,i,6.0,nt,0.1,3.4,4.3,
Cn1c(=O)[nH]c(=O)c2c1nc(Br)n2CC(O)c1ccccc1 (stereo unspecified),nt,-5.9,i,nt,-5.9,0.5,1.0,6.4,
Cc1ccc(CCNc2ncnc(Cl)c2N)cc1,nt,nt,nt,3.9,-14.7,0.1,-28.6,nt,
Cc1cc(C)c(S(=O)(=O)N2CCCCC2)cc1N(C)S(=O)(=O)c1ccc(Cl)cc1,-1.6,8.3,i,95.4*,-11.0,14.1,2.0,-2.6,
CC(=O)/C=C1\SC(CC(=O)O)C(=O)N1c1ccccc1 (stereo unspecified),1.9,-6.1,i,nt,-17.1,9.5,3.7,-5.3,
CC(=O)C(Sc1nc(N(C)C)nc(N(C)C)n1)C(=O)Nc1ccccc1 (stereo unspecified),-14.2,-2.7,i,-2.4,-16.6,-0.6,0.4,-8.4,
CC1(C)CC(=O)C2=C(C1)OC1=C(C(=O)CC(C)(C)C1)C2(C)C,-9.2,-6.7,i,nt,nt,nt,nt,-16.3,
COCCn1c(SCC(=O)Nc2ccc3c(c2)OCCO3)nnc1-c1ccncc1,-7.5,nt,nt,15.5,-28.1,-0.9,0.7,nt,
CC(C)C(NC(=O)c1ccc(C(C)(C)C)cc1)C(=O)NCC1(N(C)C)CCCCC1 (stereo unspecified),-11.1,-12.1,i,-19.8,-13.2,1.0,2.2,3.5,
C=CCN1C(=O)c2ccc(C(=O)N(CC(C)C)c3c(N)n(CCCC)c(=O)[nH]c3=O)cc2C1=O,-3.4,nt,i,-24.9,-15.4,-0.2,2.6,nt,

# 5 entries picked at random from the list so far:
SMILES,CSC inhib,eIF4H FP inh,Rce1 inhib,Env fusion inh,UUG fidelity,MT1-MMP act inh,MT1-MMP act inh RFP,PABP FP inh,others
Cc1cc(C)c(S(=O)(=O)N2CCCCC2)cc1N(C)S(=O)(=O)c1ccc(Cl)cc1,-1.6,8.3,i,95.4*,-11.0,14.1,2.0,-2.6,
CSc1ccc(CN(C)CC(=O)Nc2ccc(NC(C)=O)cc2)cc1,-8.1,-0.3,i,19.4,-6.2,-9.3,-4.2,-12.5,
Cn1c(=O)[nH]c(=O)c2c1nc(Br)n2CC(O)c1ccccc1 (stereo unspecified),nt,-5.9,i,nt,-5.9,0.5,1.0,6.4,
C=CCNC(=O)c1ccc2c(=O)n(CCCN3CCCC3=O)c(=S)[nH]c2c1,7.5,-4.0,i,-9.4,nt,-0.8,1.5,3.7,
CC(C)=C1C2CCC1C(C(=O)Nc1cc(C)cc(C)c1)C2C(=O)O (stereo unspecified),-20.1,-5.7,i,10.7,nt,0.0,0.2,8.8,
